# Source: PubChem (National Center for Advancing Translational Sciences (NCATS))
# HPGD block = blocks human HPGD enzyme activity; 4.3% of 150,000 active; Potency, µM, for the others: at the top dose activity change, negative = inhibition, usual class: inhibitors; P15428; purified HPGD, NADH fluorescence kinetic, PGE2 substrate; AID 894; active = well fitted inhibition curve with a large enough effect (not every such curve was filed as active); inconclusive = small, poorly fitted or top-dose-only effect, or another doubt; inactive = no such curve, though single readings can be large or run the other way;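 also: top concentration of the series not given in the record; plate controls included wells without enzyme; inactives centre near -10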
# Target sequence (P15428 whole entry, looked up): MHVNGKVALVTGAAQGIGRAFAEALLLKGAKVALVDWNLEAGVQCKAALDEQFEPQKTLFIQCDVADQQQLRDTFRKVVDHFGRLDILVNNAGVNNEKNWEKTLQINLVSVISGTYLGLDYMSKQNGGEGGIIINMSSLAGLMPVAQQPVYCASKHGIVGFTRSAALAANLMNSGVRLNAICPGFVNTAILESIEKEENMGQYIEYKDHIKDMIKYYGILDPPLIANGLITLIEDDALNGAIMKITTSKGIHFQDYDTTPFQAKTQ
#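 NADH formation kinetics: reaction with 30 uM PGE2 and 1 mM NAD+ (final), 20 nM enzyme, Tris-HCl pH 8 with Tween 20, after 15 min compound preincubation at room temperature. Fluorescence change, last versus first of five reads.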
# The depositor's hits bear a star; ? = inconclusive; & = joins results of further samples. % is scaled to controls: 0 for no effect and ±100 for the full control effect; potency is read from the fitted curve at half-maximal effect.
SMILES,HPGD block
COc1ccc(/C=C/C(=O)OCC(=O)c2c(C)[nH]c3ccccc23)cc1OC,?
Cc1ccc(-n2c(SCC(=O)Nc3ccc4cn[nH]c4c3)nnc2-c2ccco2)cc1,-4%
COc1ccc2cccc(N3CCN(CCNC(=O)c4ccc(F)cc4)CC3)c2c1,?
Cc1ccc(C)c(NC(=O)CSc2nc3ccc(N4C(=O)c5ccccc5C4=O)cc3s2)c1,-26%
O=C(O)COc1ccc(C(=O)Cc2ccc3c(c2)OCCCO3)c(O)c1,?
CCc1c(-c2n[nH]c(=S)n2Cc2ccccc2)csc1C,16µM*
Cc1cccc(N2CCN(C(c3ccccc3)c3nnnn3CC3CCCO3)CC2)c1C (stereo unspecified),-15%
CCOc1ccc2c(c1)-c1c(ssc1=S)C(C)(C)N2,-23%
O=C(NCc1ccc2c(c1)OCO2)c1ccc(N2CCCC2=O)cc1,-7%
COC(=O)c1c[nH]n2c(=O)c(Cc3ccc(F)cc3Cl)c(C)nc12,?
COc1ccccc1-c1nc(NCCNC(C)=O)c2ccccc2n1,-18%
COc1ccccc1NS(=O)(=O)c1cc([N+](=O)[O-])ccc1N/N=C/c1c[nH]c2ccccc12,-25%
Cn1nnnc1SCc1ccc(C(=O)Nc2ccccc2F)cc1,16µM*
COc1cccc(OC)c1C(=O)N1CCN(Cc2ccccc2C(F)(F)F)CC1,5%
CC1=C(C#N)C(C)C2=C(CC(C)(C)CC2=O)N1 (stereo unspecified),?
Cn1c(=O)[nH]c(=O)c2c1nc(SCCN1CCCCC1)n2Cc1ccccc1,25µM*
Cc1ccc(S(=O)(=O)c2c(N)n(CCCO)c3nc4ccccc4nc23)cc1,?
COc1ccc(Cn2nnnc2C(c2cccs2)N2CCN(c3ccc([N+](=O)[O-])cc3)CC2)cc1 (stereo unspecified),-18%
COC(=O)Cn1cc(C(=O)c2cccs2)c2ccccc21,-14%
COc1ccc2c(=O)c(OC)c(-c3ccccc3)oc2c1,?
CCOc1ccc(NC(=O)CCNS(=O)(=O)c2ccc(Br)s2)cc1,2%
Cc1nn(C)c(C)c1NC(=O)c1ccc(S(=O)(=O)N(C)C)cc1,2%
Cc1ccc(CNc2ccc(N3C(=O)CC(C)C3=O)cc2[N+](=O)[O-])cc1 (stereo unspecified),-16%
O=C(NC1=NCCS1)c1ccc(-c2ccc(Cl)cc2)o1,?
N=C1C(c2ccccc2)=C(O)CN1c1cccc(S(=O)(=O)Nc2cccc(C(F)(F)F)c2)c1,-12%
O=C(Nc1ccc(F)cc1)NC1(C(=O)NCc2cccs2)CCCCC1,-4%
CCc1ccc2c(c1)c1nc(C)sc1n2CC(=O)OC,-1%
C=CCn1c(SCC(=O)c2ccc(Br)cc2)nnc1C(CC(C)C)NC(=O)c1cccs1 (stereo unspecified),-8%
Cc1nc2ccccc2c(=O)n1/N=C/c1ccccc1,0%
O=C(COc1ccc(Cl)cc1Cl)Nc1ccc(Cl)cn1,8.9µM*
N/C(=N\OC(=O)COc1ccc(Br)cc1)c1ccncc1,-9%
C=CCN1C(=O)N/C(=C/c2ccc(C)o2)C1=O,-19%
O=C1COc2ccc(C(=O)CSc3nnnn3-c3ccccc3)cc2N1,-19%
COc1ccccc1NC(=O)CCN1CCN(Cc2ccccc2)CC1,-12%
CCOc1ccc(N2C(=O)c3ccccc3C2=O)cc1,-11%
Cc1ccn2cc(CCNS(=O)(=O)c3ccc(F)c(C(F)(F)F)c3)nc2c1,-6%
Cn1c(SCC(=O)OCC(=O)c2ccccc2)nnc1-c1cccs1,-17%
c1ccc(OCCn2c(-c3ccco3)nc3ccccc32)cc1,?
CCOC(=O)C(O)(CCC(O)(C(=O)OCC)C(=O)OCC)C(=O)OCC,-3%
O=[N+]([O-])c1ccc(N=Cc2sc3ccccc3c2O)cc1,-5%

# Filtered by structure, the entries above with a Cl atom.
SMILES,HPGD block
COC(=O)c1c[nH]n2c(=O)c(Cc3ccc(F)cc3Cl)c(C)nc12,?
O=C(NC1=NCCS1)c1ccc(-c2ccc(Cl)cc2)o1,?
O=C(COc1ccc(Cl)cc1Cl)Nc1ccc(Cl)cn1,8.9µM*

# 3 of the entries above in order of the HPGD block value, falling.
Compound	HPGD block
CCOC(=O)C(O)(CCC(O)(C(=O)OCC)C(=O)OCC)C(=O)OCC	-3%
O=C(Nc1ccc(F)cc1)NC1(C(=O)NCc2cccs2)CCCCC1	-4%
C=CCN1C(=O)N/C(=C/c2ccc(C)o2)C1=O	-19%

# (more compounds)
SMILES,HPGD block
O=C(Nc1ccsc1C(=O)NC1CCCCC1)c1ccccc1,-16%
O=C1N=C(N2CCCCC2)S/C1=C\c1cn[nH]c1-c1ccccc1,-26%
Cc1ccc(C(=O)CC(=O)COc2ccc(Cl)cc2)cc1,?
CCOc1cccc2cc(C(=O)NCc3cccnc3)c(=O)oc12,-18%
Cc1ccc(C2CC(c3ccc(Cl)cc3)n3nc(N)nc3N2)cc1 (stereo unspecified),-6%
CC(C)(C)NC(=O)Cn1c(=O)oc2ccc(Cl)cc21,-7%
CCCCOc1ccc(-c2ncc(C(=O)O)c(C)n2)cc1,-21%
CCOC(=O)C1=C(C(F)(F)F)Nc2ncnn2C1c1ccc(OC)cc1OC (stereo unspecified),-9%
CCN(CC)C(=S)Nc1cc(C(=O)OC)ccc1C(=O)OC,-25%
O=C1OC(Nc2nccs2)c2ccccc21 (stereo unspecified),-11%
CC(CCc1ccccc1)NC(=O)COC(=O)c1cc(NS(=O)(=O)c2ccc(Cl)c([N+](=O)[O-])c2)ccc1O (stereo unspecified),-18%
CCOC(=O)CSC1=Nc2ccccc2C2=NC(CC(=O)NCc3cccs3)C(=O)N12 (stereo unspecified),-9%
CC(=O)N1CCC2(CCCN(c3ncccn3)C2)CC1,-15%
O=C1S/C(=C\c2ccccc2)C(=O)N1CC(O)Cn1c2ccccc2c2ccccc21 (stereo unspecified),-18%
NC(=O)c1c(NC(=O)c2ccco2)sc2c1CCC2,?
CCN(CC)C(=O)CN(Cc1ccccc1)S(=O)(=O)c1ccc(F)cc1,-15%
CCOC(=O)CCCNC(=O)c1cncc(Br)c1,-3%
Cc1nn(Cc2c(Cl)cccc2Cl)c(C)c1NC(=O)c1cn(-c2ccccc2)nc1-c1ccccc1,-13%
N#Cc1ccsc1NC(=O)c1ccccn1,-26%
O=C1C2C3c4ccccc4C(c4ccccc43)[C@@H]2C(=O)N1c1cccnc1 (stereo partly specified),-14%
Cc1ccc(NC(=O)CSc2nnc(Cn3c(=O)sc4ccccc43)n2C)cc1Cl,-13%
O=C(c1ccccc1)N1CCN2C(=O)c3ccccc3C12c1ccc(Cl)cc1 (stereo unspecified),0%
O=[N+]([O-])c1ccc(-c2cn(-c3ccc(Cl)cc3)c(=S)[nH]2)cc1,-6%
N#Cc1nc(-c2cccc3ccccc23)oc1N1CCCCC1,?
CC(=O)c1ccc(-c2c(C)cc3oc(=O)cc(-c4ccccc4)c3c2C)cc1,?
C=CCN1C(=O)/C(=C/c2cccs2)S/C1=N\S(=O)(=O)c1ccc(F)cc1,-13%
CCN(CC)C(=O)CSc1nc2sc3c(c2c(=O)n1-c1ccc(C)cc1)CC(C)(C)SC3,-24%
Cc1cc(C)nc(NC(=NCCc2c[nH]c3ccccc23)NC(=O)c2ccco2)n1,-6%
COc1ccc2c(c1)C(C)=CC(C)(C)N2C(=O)CSc1nnc(-c2ccc(C)cc2)o1,-14%
Cc1cc(C)nc(Sc2nc(Nc3ccccc3)nc(Sc3nc(C)cc(C)n3)n2)n1,-9%
N#Cc1ccc(CSc2nnc(-c3cccnc3)n2-c2ccccc2)cc1,-7%
CCOC(=O)c1cc(CC)sc1NC(=O)c1ccc(N2CCOCC2)c([N+](=O)[O-])c1,-11%
O=C(CCn1c(=S)[nH]c2ccccc2c1=O)NCC1CCCO1 (stereo unspecified),28µM*
CCCCNC(=O)[C@H](Cc1c[nH]c2ccccc12)NC(=O)c1ccccc1Cl,-20%
COc1cc(-c2nnc(COC(=O)CSc3cc(C)c4ccccc4n3)o2)cc(OC)c1OC,-11%
COc1ccccc1OCc1nnc(SCC(=O)N2CCCCC2)n1-c1ccccc1,-3%
CCCn1nc(NS(=O)(=O)c2ccccc2)c2cc3ccccc3nc21,-14%
CC(C)n1c(=S)[nH]c2ccccc21,?
CC1(C)Cc2ccccc2C(=C(C#N)C#N)N1,-4%
CCOC(=O)NC(CC(=O)O)c1ccc(OC)c(OC)c1 (stereo unspecified),-6%

# Part of the list above, with the structure last.
HPGD block | smiles
-14% | CCCn1nc(NS(=O)(=O)c2ccccc2)c2cc3ccccc3nc21
? | N#Cc1nc(-c2cccc3ccccc23)oc1N1CCCCC1
? | CC(=O)c1ccc(-c2c(C)cc3oc(=O)cc(-c4ccccc4)c3c2C)cc1

# (list continues)
SMILES,HPGD block
COCCn1c(-c2ccco2)nc2nc3ccccc3nc21,?
Cc1ccccc1OCc1nnc(SCC(=O)N2c3ccccc3Sc3ccc(Cl)cc32)o1,-14%
COc1ccc(C(=O)N2CCC3(CCCN(c4ncccn4)C3)CC2)cc1,-15%
O=C(CC(Nc1cccc(Cl)c1Cl)C(=O)OCC(=O)c1cccs1)c1ccccc1 (stereo unspecified),-7%
CC1CCC(NC(=O)c2ccc3nc[nH]c3c2)CC1 (stereo unspecified),-19%
O=C(O)[C@H]1[C@H](C(=O)O)[C@H](C(=O)O)C[C@@H]1C(=O)O,-10%
O=C(CSc1oc(-c2cccs2)nc1S(=O)(=O)c1ccc(F)cc1)NCC1CCCO1 (stereo unspecified),-13%
CCCc1nc(SCC(=O)Nc2cc(C)on2)c2ccccc2n1,-21%
COc1ccc(OCc2nnc3n2N=C(c2ccc(Br)cc2)CS3)cc1,-21%
COCC(=O)N(Cc1ccco1)c1nnc(C2CCOC2)s1 (stereo unspecified),-10%
COc1ccccc1N(C)S(=O)(=O)c1ccc(C(=O)NCC(C)C)cc1,25µM*
Cc1nc2c(-c3ccccc3)c(C)nn2c(N)c1-c1ccccc1,?
CC(=O)Nc1ccc(C(=O)OCC(=O)c2ccc(F)cc2)cc1,-12%
Cc1ccc(N(c2ncnc(N)c2[N+](=O)[O-])C2CCCCC2)cc1,-9%
O=C(Nc1ccc(Cl)cc1)N1CC=CCC1,-30%
CCCCN(CCO)CCCC,-10%
O=C(Nc1nnc(CCOCCOCCc2nnc(NC(=O)c3ccco3)s2)s1)c1ccco1,-22%
Cc1ccc(C(Sc2ccccc2)C(Cn2cncn2)C(=O)c2ccccc2)cc1 (stereo unspecified),-13%
Nc1c(C(=O)NCc2ccco2)sc2nc(N3CCOCC3)c3c(c12)CCCC3,?
COc1cc(/C=N/NS(=O)(=O)c2ccc3ccccc3c2)ccc1OCCN1CCOCC1,0%
Cc1cccc(Nc2ccccc2C(=O)O)c1C,-11%&-18%&-8%
CCOc1cc(CNCCc2ccc(S(N)(=O)=O)cc2)ccc1OCC(=O)NC(C)(C)C,-1%
O=c1nc(N2CCCCCC2)nc(N2CCCCCC2)[nH]1,-6%
CC(=O)Nc1nc(=S)ss1,25µM*
O=C(COc1ccc(Br)cc1)Nc1ccncc1,3%
Cc1ccc(C(=O)NCc2ccccn2)c(Cl)c1,14µM*
CC(C)Oc1ccc(CC2CCC(=O)N(C)C2=O)cc1 (stereo unspecified),-4%
COc1cc(/C=C(/C#N)c2ccccc2)ccc1Oc1ccc([N+](=O)[O-])cn1,-20%
Cc1ccc(S(=O)(=O)Nc2ccc(O)c(C(=O)O)c2)c(C)c1,-9%
O=C(CN1C(=O)COc2ccccc21)N1CCc2ccccc21,-5%
COc1ccc(-c2nn(-c3ccccc3)cc2/C=N/N=C(N)N)cc1OC,-21%
Cc1ccc(NS(=O)(=O)c2cccc(C(=O)N/N=C/c3ccc4c(c3)OCCO4)c2)c(C)c1,?
Fc1ccccc1COc1ccc(Br)cc1CNCc1ccncc1,-24%
COC(=O)c1ccccc1NC(=O)CSc1nnc(-c2ccncc2)o1,-21%
O=C(NCc1ccc2c(c1)OCO2)c1ccc(C2SCC(=O)N2Cc2ccco2)cc1 (stereo unspecified),?
COc1ccc(CCNCc2csc3nc4ccccc4n23)cc1OC,-8%
CCOC(=O)c1cnc2ccc(OC)cc2c1NCCc1ccc(OC)c(OC)c1,-21%
O=C(c1n[nH]c2c1CCCC2)n1ccnc1,-11%
Cc1cc(NCc2ccco2)nc2cc(O)ccc12,?
CCN(CC)C(=O)c1ccc(/C=C/c2c[nH]c3ccccc23)[n+](C)c1,-7%
COC(=O)c1[nH]c2ccccc2c1NS(=O)(=O)c1ccc(OC)cc1OC,-9%
Cc1ccnc(NCn2nnc3ccccc32)c1,-9%
CCCCCCCN(C(=O)CCl)c1ccccc1C,-4%
CCNC(=O)COC(=O)CCC(=O)c1cccs1,-19%
CC(=C/c1ccco1)/C=N/NC(=O)CSc1nnc(SCc2ccc(C)cc2)s1,?
CC1CCN(CC(=O)Nc2ccccc2C#N)CC1,-5%
C[C@@H]1C[C@H](OC(=O)c2ccccc2O)CC(C)(C)C1,-1%
CC(=O)OC[C@H]1O[C@@H](n2ncc(=O)[nH]c2=O)[C@H](OC(C)=O)[C@@H]1OC(C)=O,-11%&-24%
O=C(NC1CCCCC1)C1CCCN1C(=O)NCc1ccccc1 (stereo unspecified),2%

# These rows are one share of the data; the hit share may differ from the screen's.
